# High-throughput results: PubChem, National Center for Advancing Translational Sciences (NCATS)
# HSD17B inh = HSD17B dehydrogenase inhibition | Q99714 | recombinant HSD17B10, NADH fluorescence kinetic; many of its hits are not listed in these tables | Potency, µM (highest dose often 57.1 µM), for the others: top-dose activity change, negative = inhibition, most hits filed as inhibitors | 75,000 compounds, 7.6% hits; active = well fitted inhibition curve with a large enough effect; inconclusive = small, poorly fitted or top-dose-only effect; inactive = no such curve, though single readings can be large or run the other way;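 also: the protocol describes HADH2 (HSD17B10) and not the HSD17B4 of the title; nearly all actives have a fitted effect of over 70% in size; most hits overshoot -100% by far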
#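 Enzyme plus compound, 15 min room temperature; substrate mix added (NAD+ 1 mM, beta-hydroxybutyryl-CoA 90 uM final); plates read kinetically for NADH fluorescence. HADH2 was His-tagged, E. coli-derived, 20 nM.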
# An asterisk follows results filed as active; u = inconclusive; [ ] = dose if it differs, or a comment. % is scaled to controls: 0 for no effect and ±100 for the full control effect; potency is read from the fitted curve at half-maximal effect.
smiles	HSD17B inh
O=C(NCc1ccco1)c1ccc2c(=O)n(Cc3ccco3)c(SCC(=O)N3CCCC3)nc2c1	-21%
CCCn1nnnc1NCc1ccccc1OCc1cccs1	0%
COCCCNC(=O)Nc1ccc(F)cc1F	10%
CCn1cc(C(=O)NCCC2=CCCCC2)c(=O)c2cc(S(=O)(=O)N(C)C)ccc21	-14%
Cc1cnc(C(=O)OCC(=O)c2csc(N3CCCCC3)n2)cn1	-27%
CCn1c(Cc2ccccc2)nnc1SCC(=O)Nc1ccc2c(c1)OCO2	-7%
N[C@@H](CSCc1ccc(I)cc1)C(=O)O	7%[11.4 µM]
CCn1c(=S)sc2c(=O)[nH]c(C)nc21	-5%
Fc1cccc(Cl)c1CSc1nnnn1-c1ccc2c(c1)OCO2	-7%
O=C(NCc1ccccn1)C1CC(=O)N(C2CCCC2)C1 (stereo not drawn)	4%
O=C(Nc1ccc(S(=O)(=O)Nc2nccs2)cc1)C1CCCCC1	-2%
CNc1nc(N2CCc3ccccc32)ncc1F	-18%
Cc1ccc(-c2noc(CCC(=O)Nc3cc(C)ccn3)n2)cc1	0%
CCOC(=O)C1CCN(C(=O)CN2C(=O)C(CC)Oc3ccccc32)CC1 (stereo not drawn)	8%
Cn1c(=O)c2c(nc(SCCOc3ccc4ccc(=O)oc4c3)n2C)n(C)c1=O	-4%
Cn1c(CN2CCOCC2)nnc1SCC(=O)Nc1nccs1	0%
COc1ccc(CNC2CC(=O)N(C)C2=O)cc1 (stereo not drawn)	21%
Cc1ccc(NC(=O)CN(c2ccccc2F)S(C)(=O)=O)cc1	0%
CCCCn1c(SCC(=O)NCc2ccco2)nnc1-c1ccco1	2%
O=C(CCN1C(=O)c2ccccc2C1=O)Nc1ccccn1	-8%

# Exported as labelled records: part of the list above
CCn1c(Cc2ccccc2)nnc1SCC(=O)Nc1ccc2c(c1)OCO2
  HSD17B inh: -7%
N[C@@H](CSCc1ccc(I)cc1)C(=O)O
  HSD17B inh: 7%[11.4 µM]
CCn1c(=S)sc2c(=O)[nH]c(C)nc21
  HSD17B inh: -5%
Fc1cccc(Cl)c1CSc1nnnn1-c1ccc2c(c1)OCO2
  HSD17B inh: -7%

# Back to the main list, repeating the four entries before the break.
smiles	HSD17B inh
COc1ccc(CNC2CC(=O)N(C)C2=O)cc1 (stereo not drawn)	21%
Cc1ccc(NC(=O)CN(c2ccccc2F)S(C)(=O)=O)cc1	0%
CCCCn1c(SCC(=O)NCc2ccco2)nnc1-c1ccco1	2%
O=C(CCN1C(=O)c2ccccc2C1=O)Nc1ccccn1	-8%
C[N+]1(C)CCC[C@H]1C(=O)[O-]	5%[25.6 µM]
CC1(C)CC(=O)C2=C(C1)Oc1ncn(Cc3ccco3)c(=N)c1C2c1ccccc1 (stereo not drawn)	3%
Cc1ccnc(NC(=O)COc2ccc3oc4c(c3c2)CCCC4)c1	16%
Cc1nc(S(=O)(=O)c2ccc(Cl)cc2)c(NCc2ccccc2)o1	13%
COC(=O)c1ccc(C#CC(NP(=O)(c2ccccc2)c2ccccc2)c2ccccc2)cc1 (stereo not drawn)	u
Cn1c(=O)c2c(SCC(=O)N3CCCc4ccccc43)nc(CC(C)(C)C)nc2n(C)c1=O	-8%
O=C1c2ccccc2C(=O)N1Cc1nc(-c2cccnc2)no1	-9%
O=C(OCC(=O)c1ccccc1Br)c1ccccn1	-4%
COC(=O)c1ccc(NC(=O)COc2ccccc2OC)cc1	1%
COC(=O)c1ccc(CSc2nc3ccccc3s2)o1	-5%
O=C(NCCCN1CCCCCC1)c1ccc2c(c1)NC(=O)C(N1CCOCC1)S2 (stereo not drawn)	-2%
O=C(NCCCCCNC(=O)c1cccnc1)c1cccnc1	8%
COc1cccc(-n2nnc3c(=O)n(CC(=O)N4CCCc5ccccc54)cnc32)c1	0%
COCCN(CCOC)C(=O)c1cc2sc3ccccc3c2s1	-19%
O=C(c1ccc2c(c1)OCO2)n1nnc2ccccc21	-24%
CC1(C)CCC=[N+]1[O-]	-6%
O=C(O)c1ccc(CSc2nnc(COc3ccc(Cl)cc3Cl)o2)cc1	-5%
Nn1c(SCC(=O)N2CCCc3ccccc32)nnc1-c1ccccc1	u
CN(C)C(CNC(=O)c1cccc(S(=O)(=O)N2CC3(C)CC2CC(C)(C)C3)c1)c1ccco1 (stereo not drawn)	-2%
Cc1ccc(O)c(C(=O)c2cnn(C(=O)Cc3csc(C)n3)c2)c1	83%[activator]
Cc1ccc(C)c(NC(=O)CSc2nnc(-c3ccncc3)n2N)c1	5%
COc1cccc(C(N)CC(=O)O)c1 (stereo not drawn)	-3%
COC(=O)CCCC(=O)N1CCOCCN(C(=O)CCCC(=O)OC)CCOCC1	7%
CC1=C(C#N)C(=O)NC(C)(C)C1	6%
O=C(CNS(=O)(=O)c1cccc2nsnc12)NCc1ccc(Cl)cc1	-20%
O=S(=O)(NC1CCCC1)c1ccc(S(=O)(=O)N(Cc2cccs2)CC2CCCO2)cc1 (stereo not drawn)	2%
O=C(Cn1ncc2c1-c1ccccc1OC2)Nc1ccc(Cl)cn1	-1%
COc1ccccc1NS(=O)(=O)c1ccc(C(=O)OCC(=O)NCc2ccco2)cc1	-16%
CCOC(=O)N1CCN(C(=O)CN(c2cc(Cl)ccc2OC)S(=O)(=O)c2ccccc2)CC1	3%
CS(=O)(=O)N1CCC2(CCN(c3ccccn3)CC2)CC1	32µM*
CCN(CC)C(=O)CCCOc1ccc(Cl)cc1Cl	-2%
O=P(O)(COc1ccccc1)COc1ccccc1	4%
COc1cccc(C(=O)N(CN2CCCC2=O)c2cccc(Cl)c2)c1OC	11%
Cc1cc2ccccc2c(=O)n1CC(=O)N1CCN(c2cccc(Cl)c2)CC1	-10%
C=CCn1c(NC(C)c2cc(Cl)ccc2O)nc2ccccc21 (stereo not drawn)	-1%
CCC(C)NC(=O)NC1C(NC(=O)NC(C)CC)N(C)C(=O)N1C (stereo not drawn)	-7%
COc1cc(C2C(C#N)=C(N)OC3=C2C(=O)CCC3)ccc1OC(=O)N1CCOCC1 (stereo not drawn)	1%
O=C(CN1CCC(c2nc3ccccc3s2)CC1)NCc1cccs1	3%
Cc1ccc(C)c(Cn2nnc3c(=O)[nH]c(C4CCN(C(=O)c5cccs5)CC4)nc32)c1	-11%
CC(CCc1ccccc1)NC(=O)c1ccncc1 (stereo not drawn)	-21%
Cc1nc(NC2CCCCC2)c2nc(-c3ccccc3)n(CCN(C)C)c2n1	25µM*
Cc1cc(C(=O)COC(=O)c2ccc3c(c2)OCO3)c(C)n1Cc1cccs1	-5%
Oc1[nH]c2ccccc2c1C=Nc1ccc2c(c1)OCO2	-8%
CCOCCCNC(=O)N1CCOCC1	5%
COc1ccccc1S(=O)(=O)Cc1ccc(C(=O)NCCN(C)C)o1	4%
Oc1cc(O)c2c(c1)O[C@@H](c1ccc(O)c(O)c1)[C@H](O[C@@]1(c3cc(O)c(O)c(O)c3)Oc3cc(O)cc(O)c3[C@H](O)[C@@H]1O)C2	u
COc1cc(OC)c2cc(-c3ccncc3)cnc2c1	32µM*
O=C(Nc1ccccc1)N1CCC2(CC1)CCN(C(=O)c1ccncc1)CC2	5%
COc1ccccc1N1CCN(C(=O)CN(c2ccccc2OC)S(=O)(=O)c2ccccc2)CC1	-10%
O=C(O)C1CC=CCC1C(=O)N1CCCC1 (stereo not drawn)	9%
CC(C)C(=O)NC(C)C(c1cccs1)N1CCOCC1 (stereo not drawn)	7%
COc1ccc(C)cc1NC(=O)c1cnc2scc(C)n2c1=O	16µM*
CCCCCn1c(CCCNC(=O)CC)nc2ccccc21	-6%
CC(C)(C)NCC(O)COc1ccccc1C(C)(C)C (stereo not drawn)	3%
CCN1CCCC1CN(Cc1cc2c(C)cc(C)cc2[nH]c1=O)C(=O)NC1CCCCC1 (stereo not drawn)	u
Cc1ccccc1-c1nc(CN2CCC(C(=O)NCc3ccco3)CC2)c(C)o1	5%
COc1cc(C(O)P(=O)(OC2CCCCC2)c2ccc(N(C)C)cc2)cc(OC)c1OC (stereo not drawn)	4%
CCOC(=O)c1ccc(NC(=O)CCc2nc(-c3ccc(Cl)cc3)no2)cc1	6%
COc1ccc(CNc2ncnc3ccc(-c4ccccc4OC)cc23)c(OC)c1	-7%
C/C=C/Cn1c(Br)nc2c1c(=O)n(C)c(=O)n2C	1%

# The listing continues:
smiles	HSD17B inh
COc1ccc(C(=O)/C=C/N2CCCCC2)cc1OC	10%
Cc1cc(C)n(C(=O)CCCCCC(=O)n2nc(C)cc2C)n1	5%
CCn1c(SCC(=O)Nc2nc(C)c(C)s2)nnc1-c1ccco1	5%
CCOC(=O)c1ccccc1NS(=O)(=O)c1ccccc1F	-2%
N#Cc1ccccc1OCCN1C(=O)c2ccccc2C1=O	9%
CCOC(=O)c1cccc(N2C(=O)c3ccccc3S2(=O)=O)c1	-17%
CCOC(=O)Nc1cc2c(cc1C(C)=O)OCO2	u
CCN(CC)S(=O)(=O)c1cc(C(=O)OCC(=O)c2ccc3c(c2)NC(=O)CO3)ccc1F	4%
O=C(c1cc2nc(-c3ccco3)cc(C(F)(F)F)n2n1)N1CCN(c2ccc(F)cc2)CC1	u
Ic1ccc(N2CCN(Cc3c[nH]c4ncccc34)CC2)cc1	-14%
O=C(CN1CC(=O)Oc2ccccc21)NCc1ccco1	1%
c1ccc(C(Cc2nc(-c3ccncc3)no2)c2ccccc2)cc1	-3%
CCCCn1c(SCC(N)=O)nnc1-c1cc(OC)c(OC)c(OC)c1	13%
OC(CN1C2=NCCN2c2ccccc21)c1ccccc1 (stereo not drawn)	11%
N#Cc1c(-c2cccs2)cc(-c2ccccn2)nc1N	-4%
CC(=O)c1cc2c(cc1NC(=O)c1cnc(C)cn1)OCO2	1%
CCc1cc(=O)oc2cc(C)cc(O)c12	-5%
C/C(N)=C(/C#N)C(=O)CSc1nnc(COc2ccccc2Cl)o1	-1%
CC(=O)Oc1ccc2oc(=O)c3c(c2c1)CCCN3C(=O)CN1CCN(c2ncccn2)CC1	-11%
COc1ccc(NC(=O)NC(C)c2ccncc2)cc1OC (stereo not drawn)	11%
CCCOc1cccc(C2C(C(=O)c3ccco3)=C(O)C(=O)N2CCN(CC)CC)c1 (stereo not drawn)	-5%
O=C(CCN1C(=O)c2ccccc2C1=O)Nc1ccc(S(=O)(=O)NC2=NCCCCC2)cc1	2%
Cn1c(=O)cc(N2CCCCC2)[nH]c1=O	5%
CCOC(=O)C1=C(N)OC2=C(C(=O)CC(C)(C)C2)C1c1ccccc1OCC#N (stereo not drawn)	3%
CCN(CC)CC(=O)Nc1ccc(C)cc1Br	-6%
Cc1csc(NC(=O)C2CCCN(S(=O)(=O)c3ccc(Br)s3)C2)n1 (stereo not drawn)	-1%
O=C(CC1CCCC1)NCCc1cn2ccccc2n1	32µM*
COc1ccc(S(=O)(=O)N2CCN(CC(=O)Nc3cccc(F)c3)CC2)cc1	-4%
CC(C)Cn1c(SCC#N)nc2ccccc2c1=O	-10%
COCCN1C(=O)c2ccccc2C(C(=O)NCCN(C)C)C1c1ccc(F)cc1 (stereo not drawn)	-3%
COC(=O)N1CCC2(CC1)CCN(c1cccc(-c3ccccc3)c1)CC2	u
CCOC(=O)C1=C(O)C(=O)N(c2ccc(S(N)(=O)=O)cc2)C1c1ccccc1 (stereo not drawn)	u
CSC1=C(C#N)C(CC(C)C)C2=C(CCCC2=O)N1 (stereo not drawn)	u
COc1ccc(CCNC(=O)CSc2ncnc3c2oc2ccccc23)cc1OC	u
CCn1c(SCC(=O)N2CCOCC2)nc(O)cc1=O	11%
C=CCn1c(SCC(=O)NC2CCCCC2)nnc1-c1sc(N)nc1C	10%
O=C(Nc1ccc(-c2nc3ccccc3o2)c(O)c1)c1cc(-n2cnnc2)ccc1Cl	20µM*
COc1cc(-c2nc(-c3ccc(C)nc3OC)no2)cc(OC)c1OC	0%
O=C(Cn1c(=O)n(Cc2ccco2)c(=O)c2cc(Cl)ccc21)NCC1CCCO1 (stereo not drawn)	-2%
CC1(C)CC(=O)C(C=NC(CCC(N)=O)C(=O)O)=C(O)C1 (stereo not drawn)	2%
CCOC(=O)C1C(=O)NC(SCC(N)=O)=C(C#N)C1c1ccccc1OCC (stereo not drawn)	-7%
Cc1ccc(C)c(NC(=O)CSc2n[nH]c(-c3ccncc3)n2)c1	5%
C[C@H](Br)C(=O)Nc1ccc(C(=O)O)c(O)c1	-22%[11.4 µM]
Cc1ccc(NCc2nnc(SCC(=O)NCc3ccco3)n2CC2CCCO2)c(C)c1 (stereo not drawn)	1%
O=C(c1ccc(OCC2CCCO2)cc1)N1CCN(c2ccccc2)CC1 (stereo not drawn)	1%
Cc1cccc(OCCn2c(NC(=O)c3ccco3)nc3ccccc32)c1	266%[activator]
O=C(C1CC1)N1CCc2cc(Br)cc(S(=O)(=O)NCCCN3CCCC3)c21	4%
C=CCNc1nc(-c2sc(NC(C)=O)nc2C)cs1	-7%
CN(CC(=O)Nc1ccc(F)c(F)c1F)c1cnccn1	-11%
CCOc1ccc(N2C(=O)CC(Sc3nccc(C)n3)C2=O)cc1 (stereo not drawn)	-5%
CCN1CCN(CCC(=O)Nc2ccccc2OC)CC1	14%

# An excerpt; rates above refer to the full screens.
